Assay outcomes: PubChem, National Center for Advancing Translational Sciences (NCATS)
Cruzain inh noDet: qHTS Assay for Promiscuous and Specific Inhibitors of Cruzain (without detergent) | purified cruzain, Z-FR-AMC fluorescence, no detergent | 200,000 tested, 2.3% active | Potency, µM, without a hit: max response, negative = inhibition, most hits filed as inhibitors;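 note: plate controls were enzyme without inhibitor for no effect and buffer without enzyme for full effect; nearly all actives have a fitted effect of over 40% in size; top concentration of the series not given in the record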
Target sequence (P25779 123-467 limits assumed): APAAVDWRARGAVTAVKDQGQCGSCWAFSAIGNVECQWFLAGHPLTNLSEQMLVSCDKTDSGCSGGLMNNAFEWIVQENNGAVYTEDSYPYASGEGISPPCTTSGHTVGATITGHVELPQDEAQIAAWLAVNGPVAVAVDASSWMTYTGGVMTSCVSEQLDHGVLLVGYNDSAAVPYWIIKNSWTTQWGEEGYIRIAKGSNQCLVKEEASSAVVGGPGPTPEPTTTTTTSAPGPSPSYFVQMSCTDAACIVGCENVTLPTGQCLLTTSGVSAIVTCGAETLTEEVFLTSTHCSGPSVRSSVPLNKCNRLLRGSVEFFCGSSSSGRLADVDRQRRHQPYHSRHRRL
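Detergent-free condition (0.00005% Triton X-100) in acetate buffer pH 5.5 with DTT. 1.5 nM enzyme and compound were pre-mixed 15 min, then 2 uM Z-FR-AMC substrate added; reaction progress from fluorescence change between first and third reads (60 s).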
RE007 growth inh: qHTS Assay for Inhibitors of the HIV-1 protein Vpr. 360,000 tested, 0.21% active. AID 651644, 2012. S. pombe RE007 Vpr strain, BacTiter-Glo ATP luminescence, 24 h; control for the full effect not named in the record. Potency, µM (highest dose often 92.2 µM), without a hit: at the top dose activity change, negative = less growth; active = well fitted falling curve with a large enough effect; inconclusive = small, poorly fitted or top-dose-only effect; inactive = no such curve, though single readings can be large or run the other way;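 note: % is set by controls: 0 for no effect and ±100 for the full control effect; nearly all actives have a fitted effect of over 50% in size; the assay follows cell death caused by Vpr and the record does not say whether a fall means rescue or toxicity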
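Fission yeast strain RE007, carrying one chromosomally integrated HIV-1 vpr copy, was seeded at OD 0.01 in PMG+AL medium with 23 nL pinned compound. After 24 h at 30 °C and 99% humidity, viability was read by BacTiter-Glo luminescence.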
Lassa entry inh: qHTS for Inhibitors of binding or entry into cells for Lassa Virus; Lassa virus pseudotype entry inhibition, cell reporter; control for the full effect not named in the record; Potency, µM (doses to about 37.9 µM), inactives show at the highest dose activity change, negative = inhibition, usual class: inhibitors; AID 540256, 2011; 300,000 tested, 1.2% active; active means well fitted inhibition curve with a large enough effect; inconclusive means small, poorly fitted or top-dose-only effect, or effect the other way; inactive means flat fitted curve, though single readings scatter; tested in HEK293 cells; note: % is set by controls: 0 for no effect and ±100 for the full control effect; nearly all actives have a fitted effect of over 50% in size; luciferase read-out
Marburg entry inh: qHTS for inhibitors of binding or entry into cells for Marburg Virus; Marburg virus pseudotyped entry inhibition, cell reporter; control for the full effect not named in the record; about a third of the inactives were read at about 46 µM; 300,000 tested, 1.8% active; AID 540276, 2011; Potency, µM (doses to about 37.8 µM), inactives show top-dose activity change, negative = inhibition, hits mostly inhibitors; active = well fitted inhibition curve with a large enough effect; inconclusive = small, poorly fitted or top-dose-only effect, or effect the other way; inactive = flat fitted curve, though single readings scatter; tested in HEK293 cells; about a fifth of its hits are not listed in these tables; note: % is set by controls: 0 for no effect and ±100 for the full control effect; luciferase read-out
NS1 inh: qHTS Assay for Inhibitors of Influenza NS1 Protein Function; S. cerevisiae slowed by influenza A NS1, growth recovery by OD600; Potency, µM (series often up to 46.1 µM), without a hit: at the top dose activity, positive = more growth; 270,000 tested, 0.4% active; active means well fitted rising curve with a large enough effect; inconclusive means small, poorly fitted or top-dose-only effect; inactive means no such curve, though single readings can be large or run the other way; note: nearly all actives have a fitted effect of over 50% in size
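Growth recovery, yeast-based: influenza A NS1 expressed in S. cerevisiae causes slow growth, and suppressors are detected by OD600. The parent strain without NS1 is used as positive control.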
2A StopGo: High Throughput Screening for Foot and Mouth Disease Virus Antivirals; Potency, µM (top dose mostly 57.9 µM), without a hit: at the top dose signal change, negative = less light; 410,000 tested, 1.2% active; human cells with a luciferase reporter of 2A StopGo recoding; control for the full effect not named in the record; active = well fitted falling curve with a large enough effect; inconclusive = small, poorly fitted or top-dose-only effect; inactive = no such curve, though single readings can be large or run the other way; tested in HEK293T cells; note: % is set by controls: 0 for no effect and ±100 for the full control effect; nearly all actives have a fitted effect of over 45% in size; luciferase light after 4 h
SARS PLpro yeast: qHTS of Yeast-based Assay for SARS-CoV PLP; S. cerevisiae expressing SARS-CoV PLpro, growth rescue; control for the full effect not named in the record; Potency, µM (doses to about 32.9 µM), for the others: at the top dose activity, positive = growth rescue; 330,000 tested, 0.19% active; active means well fitted rising curve with a large enough effect; inconclusive means small, poorly fitted or top-dose-only effect; inactive means no such curve, though single readings can be large or run the other way; note: 0% is about no effect; nearly all actives have a fitted effect of over 55% in size; growth read by luminescence after 48 h
Cruzain Triton: qHTS Assay for Promiscuous and Specific Inhibitors of Cruzain (with detergent); 200,000 tested, 0.43% active; purified cruzain, Z-FR-AMC fluorescence, 0.01% Triton; Potency, µM, inactives show max response, negative = inhibition, usual class: inhibitors;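 note: plate controls were neutral wells for no effect and buffer without enzyme for full effect; nearly all actives have a fitted effect of over 40% in size; top concentration of the series not given in the record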
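15 min RT preincubation of 1.5 nM cruzain with compound, then 2 uM Z-FR-AMC added; kinetic AMC fluorescence, 60 s delta. Triton X-100 0.01%, pH 5.5.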
* = called active by the depositor; & = joins results of further samples; [ ] = remark or other dose. Unless noted, calls come from the whole dose curve; as a rule, active = well fitted curve in the direction sought with a large enough effect; inconclusive = small, poorly fitted or top-dose-only effect, or another doubt; inactive = no such curve, though single readings can be large; an effect the other way counts as inactive or inconclusive. Potency is the fitted concentration of half-maximal effect.

`COc1ccc(O)c(-c2[nH]ncc2C(=O)c2ccccc2C)c1` gave Cruzain inh noDet 15%, RE007 growth inh -5%, Lassa entry inh inconclusive, Marburg entry inh inconclusive, NS1 inh 4%, 2A StopGo 23%, SARS PLpro yeast 6% and Cruzain Triton -1.2%.
`O=C1CN=C(c2cc([N+](=O)[O-])ccc2Cl)c2cc([N+](=O)[O-])ccc2N1` gave RE007 growth inh 17%, Lassa entry inh 0%, Marburg entry inh 5%[46.1 µM] and 2A StopGo -1%.
Screening O=C1/C(=C/c2ccccc2)NC(=S)N1C(c1ccccc1)c1ccccc1 returned Cruzain inh noDet 20µM*, RE007 growth inh -1%, Lassa entry inh inconclusive, Marburg entry inh inconclusive, NS1 inh 10%, 2A StopGo 0%, SARS PLpro yeast 2% and Cruzain Triton -3.4%.
CCc1cc(=O)[nH]c(SCC(=O)NCc2ccc3c(c2)OCO3)n1 was read as RE007 growth inh -9%, Lassa entry inh -12%, Marburg entry inh inconclusive, 2A StopGo -13% and SARS PLpro yeast 1%.
`COc1ccc(N2C(C(C)=O)=NN(c3ccccc3)C2c2cccs2)cc1` (centres undefined) gave Cruzain inh noDet inconclusive, NS1 inh -7%, SARS PLpro yeast inconclusive and Cruzain Triton -1.2%.
`CC(C)=CCN1CCN(CCC2=C(C)CCCC2(C)C)CC1CCO` (centres undefined) gave RE007 growth inh 3%, NS1 inh -4%, 2A StopGo -14% and SARS PLpro yeast -1%.
CC(CC(=O)O)CC(=O)Nc1ccc(Br)cc1 (centres undefined) was read as RE007 growth inh -8%, Lassa entry inh -5%, Marburg entry inh 4%[46.1 µM], NS1 inh 5%, 2A StopGo 1% and SARS PLpro yeast 0%.
`CCOC(=O)Cc1csc(NC(=O)c2ccc3ccccc3n2)n1` gave RE007 growth inh -28%, Lassa entry inh inconclusive, Marburg entry inh -3%[46.1 µM], NS1 inh -10%, 2A StopGo 18% and SARS PLpro yeast -4%.
`N=c1c(S(=O)(=O)c2ccc(Cl)cc2)cc2c(=O)n3ccccc3nc2n1Cc1ccco1` gave RE007 growth inh -11%, Lassa entry inh inconclusive, Marburg entry inh inconclusive, NS1 inh 14%, 2A StopGo -17% and SARS PLpro yeast -1%.
For CC(=O)N(c1ccccc1)C1CC(C)N(C(=O)c2ccccc2)c2ccccc21 (centres undefined) the results were RE007 growth inh -11%, Lassa entry inh -22%, Marburg entry inh inconclusive, NS1 inh 8%, 2A StopGo inconclusive and SARS PLpro yeast 4%.
For Cc1ccccc1C(=O)/C=C1\NC(=O)CS1 the results were Cruzain inh noDet 0%, RE007 growth inh -6%, Lassa entry inh 0%, Marburg entry inh inconclusive, NS1 inh -66%, 2A StopGo 4%, SARS PLpro yeast -8% and Cruzain Triton -5.7%.
For COc1cc(C(=O)NCc2ccc(S(N)(=O)=O)cc2)ccc1OCC(=O)Nc1cccc(C(F)(F)F)c1 the results were RE007 growth inh 1%, Lassa entry inh 7%, Marburg entry inh -3%[46.1 µM], 2A StopGo -13% and SARS PLpro yeast 6%.
`CC(CN(C)Cc1ccccc1)OC(=O)c1cccs1` (centres undefined) gave Cruzain inh noDet 1%, RE007 growth inh -19%, Lassa entry inh 26%, Marburg entry inh 7%, NS1 inh 3%, 2A StopGo -4%, SARS PLpro yeast inconclusive and Cruzain Triton 1.0%.
Screening O=C(CNC(=O)c1cccs1)NCC(=O)OCc1c(Cl)cccc1Cl returned Cruzain inh noDet -2%, RE007 growth inh -5%, Lassa entry inh inconclusive, Marburg entry inh -24%, NS1 inh -4%, SARS PLpro yeast -6% and Cruzain Triton 2.2%.
CC(Oc1ccccc1)C(=O)NNC(=O)c1ccccn1 (centres undefined) was read as Cruzain inh noDet 6%, RE007 growth inh -30%, Lassa entry inh inconclusive, Marburg entry inh inconclusive, NS1 inh -9%, 2A StopGo -10%, SARS PLpro yeast 7% and Cruzain Triton -2.8%.
Screening CC(=O)NCCCC(=O)NNC1CC(=O)N(c2cccc(Cl)c2)C1=O (centres undefined) returned RE007 growth inh inconclusive, Lassa entry inh 1%, Marburg entry inh -3%[14.2 µM], NS1 inh -6%, 2A StopGo -20% and SARS PLpro yeast -7%.
Screening Fc1ccc(CSc2ccc(-c3ccc4c(c3)OCO4)nn2)cc1 returned Cruzain inh noDet inconclusive, RE007 growth inh 6%, Lassa entry inh 5%, Marburg entry inh -10%, NS1 inh -2%, 2A StopGo 14%, SARS PLpro yeast -5% and Cruzain Triton -4.1%.
For O=C(Nc1ccc2c(c1)OCCO2)N1CCN(Cc2ccccc2)CC1 the results were RE007 growth inh -11%, Lassa entry inh 0%, Marburg entry inh 0%[46.1 µM], 2A StopGo 41%[activator] and SARS PLpro yeast -1%.
`COc1cc(C2(C#N)CCN(C)CC2)cc(OC)c1OC` gave RE007 growth inh -9%, Lassa entry inh 0%[46.1 µM], Marburg entry inh 9%[46.1 µM] and 2A StopGo 13%.
`CCOC(=O)c1c(C)oc2nc(C)nc(N3CCN(c4ccccc4)CC3)c12` gave Cruzain inh noDet 0%, Lassa entry inh -12%[46.1 µM], 2A StopGo 28µM* and Cruzain Triton -5.8%.
Cc1cnc(CNC(=O)CC2C(=O)NCCN2Cc2cccc(F)c2F)cn1 (centres undefined) was read as RE007 growth inh 5%, Lassa entry inh 1%[46.1 µM], Marburg entry inh inconclusive, NS1 inh -6%, 2A StopGo 12% and SARS PLpro yeast 0%.
O=C1COc2ccc(C(=O)COC(=O)c3ncc(Cl)c(Cl)c3Cl)cc2N1 was read as RE007 growth inh 6%, Lassa entry inh 0%, Marburg entry inh 8%[46.1 µM], 2A StopGo -13% and SARS PLpro yeast 1%.
`CC(CO)(CO)NC(=O)c1ccc(=O)[nH]n1` gave RE007 growth inh -10%, NS1 inh -3%, 2A StopGo -16% and SARS PLpro yeast 0%.
For CC(C)CC(=O)n1sc(NC(=O)c2ccccc2)nc1=O the results were Cruzain inh noDet 4%, RE007 growth inh -1%, Lassa entry inh 3%, Marburg entry inh 10%, NS1 inh -139%, 2A StopGo -2%, SARS PLpro yeast -12% and Cruzain Triton -0.7%.
`COC(=O)C1(C)NC(c2ccccc2C)C2C(=O)N(c3ccc(F)cc3)C(=O)C21` (centres undefined) gave RE007 growth inh 1%, Lassa entry inh 3%[46.1 µM], Marburg entry inh -3%[46.1 µM], NS1 inh 1%, 2A StopGo 2% and SARS PLpro yeast -5%.
N#CCCn1ncc2ccccc21 was read as Cruzain inh noDet 11%, RE007 growth inh 14%, Lassa entry inh 12%, Marburg entry inh 7%, NS1 inh 1%, 2A StopGo 0%, SARS PLpro yeast 1% and Cruzain Triton 1.2%.
Screening FC(F)Sc1ccc(-n2cc(-c3ccc(Cl)cc3)[n+]3c2CCC3)cc1 returned Cruzain inh noDet -3%, RE007 growth inh 1%, Lassa entry inh 1%, Marburg entry inh -16%, NS1 inh 0%, 2A StopGo -23%, SARS PLpro yeast -1% and Cruzain Triton -7.4%.
For Cc1nc2sccn2c(=O)c1S(=O)(=O)Nc1ccc(N2CCOCC2)cc1 the results were Cruzain inh noDet -4%, Lassa entry inh -3%[46.1 µM], 2A StopGo -10% and Cruzain Triton -4.0%.
`Cc1ccc(C)c(N2CCN(C(=O)CN(C)S(=O)(=O)c3ccc4c(c3)CCC(=O)N4)CC2)c1` gave Cruzain inh noDet inconclusive, RE007 growth inh 6%, Marburg entry inh 3%, NS1 inh -16%, 2A StopGo inconclusive, SARS PLpro yeast -2% and Cruzain Triton -3.4%.
Cc1c(C(=O)NC2CC2)oc2ccc(S(=O)(=O)N3CCCCCC3)cc12 was read as Cruzain inh noDet 7%, RE007 growth inh 27%, Lassa entry inh 2%, Marburg entry inh -25%&-25%, NS1 inh -38%, 2A StopGo -26%, SARS PLpro yeast -11% and Cruzain Triton -4.0%.
`CC1(C)C(=O)Nc2ccccc2N1C(=O)COc1cccnc1[N+](=O)[O-]` gave RE007 growth inh -19%, Lassa entry inh -8%[46.1 µM], Marburg entry inh 5%[46.1 µM], 2A StopGo -19% and SARS PLpro yeast -1%.
Screening CC(C)(C)C(=O)Nc1sc2c(c1C#N)CCCCC2 returned Cruzain inh noDet -7%, RE007 growth inh -8%, Lassa entry inh 8%, Marburg entry inh 17%, NS1 inh -2%, 2A StopGo 19%, SARS PLpro yeast inconclusive and Cruzain Triton -1.8%.
CSc1ccccc1NC(=O)CN(C1CCCCC1)S(C)(=O)=O was read as Cruzain inh noDet 8%, RE007 growth inh 1%[3.69 µM], Lassa entry inh 16%, Marburg entry inh 13%, NS1 inh -1%, 2A StopGo -16%, SARS PLpro yeast -6% and Cruzain Triton -2.1%.
`CC(C)CC(=O)NC(=S)Nc1ccc(N2CCOCC2)cc1` gave Cruzain inh noDet -11%, RE007 growth inh -14%, Lassa entry inh 3%, Marburg entry inh inconclusive, NS1 inh 26%, 2A StopGo 81%[activator], SARS PLpro yeast 11% and Cruzain Triton -11%.
For C/C(NCCN1CCOCC1)=C(\C#N)C(N)=O the results were Cruzain inh noDet -9%, RE007 growth inh -18%, Lassa entry inh -2%, Marburg entry inh -4%, NS1 inh 9%, 2A StopGo -5%, SARS PLpro yeast 12% and Cruzain Triton 1.5%.
Screening O=C(NCc1ccc(Cl)cc1)c1csc(-c2cccnc2)n1 returned RE007 growth inh 2%, NS1 inh -78%, 2A StopGo inconclusive and SARS PLpro yeast -6%.
`COc1cc2nc(C3CC3)n(NC(=O)c3ccc(Cl)cc3)c(=O)c2cc1OC` gave Cruzain inh noDet inconclusive, RE007 growth inh 4%, Lassa entry inh inconclusive, Marburg entry inh -28%, NS1 inh -2%, 2A StopGo -15%, SARS PLpro yeast -10% and Cruzain Triton -3.7%.
Cc1nc2scc(C)n2c(=O)c1S(=O)(=O)N1CCN(c2ccccc2F)CC1 was read as RE007 growth inh 4%, NS1 inh 1%, 2A StopGo -19% and SARS PLpro yeast -2%.
For O=C1c2cccnc2C(=O)N1Cc1ccccc1 the results were Cruzain inh noDet -8%, RE007 growth inh 2%, NS1 inh -8%, 2A StopGo -15%, SARS PLpro yeast -1% and Cruzain Triton -1.5%.
